# Assay outcomes (PubChem BioAssay)
# Anaer choline gr: blocks anaerobic gram-negative growth on choline | Gram-negative bacterium anaerobic choline minimal medium, absorbance growth; hits give low values; many inactives read as strong as hits in the columns shown | calls only | actives 0.2% (n = 55,000) | AID 1963822;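 active = growth z-score on choline under -2 at 7 or 20 h with little or no fall on glycerol, limits in tiers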;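 also: stock transfer was 300 nL into about 50 µL; the organism is E. coli; final concentration not given here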
# Anaer choline gr early: second read-out of Anaer choline gr, no call of its own (marks repeat the call); z-score; measured here: choline growth z-score, timepoint 1;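 score of optical density at 7 h as mean of two plates; lower means less growth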
# Numbers without * were called inactive; i = inactive; + = active, no number; & = joins results of further samples; ! = not confirmed by another sample. An excerpt; the hit share may differ from the screen's.
SMILES,Anaer choline gr,Anaer choline gr early
COc1ccc2c(c1)c(NC(C)=O)c1n2CC(C)(C(=O)NC2CCCC2)N(Cc2cccnc2)C1=O (configuration not stated),i,-0.49
Cc1ccc(CSc2ccc(-n3nc4c(c3C)CCC4)nn2)cc1,i,2.3
Cc1nonc1NC(=O)c1ccccc1F,i,-0.71
O=C(Nc1cccc(F)c1)C1Nc2cc(F)ccc2S(=O)(=O)N1 (configuration not stated),i,-0.24
Fc1ccc(N2CCn3c(SCc4ccccc4)nnc32)cc1,i,0.84
Cn1c(SCc2nc(-c3ccccc3)no2)nnc1-c1ccc2c(c1)OCCCO2,i,-0.3
Cc1ccc2c(c1)Oc1cc(Cl)c(S(=O)(=O)N3CCC(C)CC3)cc1C(=O)N2,i,1.2
Cn1c(SCC(=O)NCCc2ccccc2)nc2cc(-c3ccccc3)sc2c1=O,i,0.97
COc1ccc(-c2nnc3sc(-c4cc(CC(C)C)[nH]n4)nn23)cc1,i,-0.81
OCCNc1nc(Nc2ccc3c(c2)OCO3)c2cnn(-c3ccccc3)c2n1,i,0.26
CCOC(=O)c1ccc2c(c1)N(Cc1nc(-c3ccccc3C)oc1C)C(=O)c1ccccc1S2(=O)=O,i,-0.12
C=CCn1c(SCc2nc(-c3ccc(OCC)cc3)no2)nc2cc3c(cc2c1=O)OCO3,i,-0.23
CCNc1cc(C)nc(Nc2ccc(NS(=O)(=O)c3ccc(OC)c(OC)c3)cc2)n1,i,-0.72
O=C(c1cnc2ccccc2c1NCc1ccc(Cl)cc1)N1CCOCC1,i,-0.82
O=C(Nc1ccccc1F)C1CCN(Cc2cc3ccccc3n2Cc2cccc(F)c2)CC1,i,1.9
O=C(c1csc(S(=O)(=O)N2CCc3ccccc32)c1)N1CCCC1,i,-0.03
Cc1ccc(-c2noc(Cc3nc(-c4ccc(F)cc4)cs3)n2)cc1,i,0.15
Cc1ccc(C(=O)NCC(=O)OCc2cc(=O)n3ccsc3n2)cc1,i,1.2
CCCC(=O)N1CCCN(c2cc(=O)n(C(C)C)c(=O)n2C(C)C)CC1,i,-1.5
CCNc1cc(C)nc(Nc2ccc(NC(=O)C(CC)CC)cc2)n1,i,-0.59

# Some of these compounds in order of the Anaer choline gr early value, falling.
SMILES,Anaer choline gr,Anaer choline gr early
O=C(Nc1ccccc1F)C1CCN(Cc2cc3ccccc3n2Cc2cccc(F)c2)CC1,i,1.9
O=C(c1csc(S(=O)(=O)N2CCc3ccccc32)c1)N1CCCC1,i,-0.03
Cn1c(SCc2nc(-c3ccccc3)no2)nnc1-c1ccc2c(c1)OCCCO2,i,-0.3
COc1ccc2c(c1)c(NC(C)=O)c1n2CC(C)(C(=O)NC2CCCC2)N(Cc2cccnc2)C1=O (configuration not stated),i,-0.49
Cc1nonc1NC(=O)c1ccccc1F,i,-0.71
CCCC(=O)N1CCCN(c2cc(=O)n(C(C)C)c(=O)n2C(C)C)CC1,i,-1.5

# The list goes on.
SMILES,Anaer choline gr,Anaer choline gr early
COc1ccc(OC)c(S(=O)(=O)N2CCN=C2N2CCN(c3ccccc3F)CC2)c1,i,-0.23
O=c1n(CCOc2ccccc2)nc2c(S(=O)(=O)N3CCN(c4ccc(F)cc4)CC3)cccn12,i,-0.21
Cc1ccc2nc(COc3ccccc3NC(=O)CN3C(=O)c4ccccc4C3=O)cc(=O)n2c1,i,-1.6
O=C1CC(c2nc(Cn3cnc(S(=O)(=O)N4CCCCC4)c3)no2)CN1c1cccc(Cl)c1 (configuration not stated),i,0.45
Cc1ccc(Cl)cc1NS(=O)(=O)c1c(C)sc(C)c1-c1cc(C(F)(F)F)on1,i,0.85
COc1cc(Nc2ncc3c(n2)CCN(S(=O)(=O)c2ccccc2C)C3)cc(OC)c1,i,1.4
O=S(=O)(NC1CCCC1)c1ccc(-c2ccno2)s1,i,0.61
O=C1COc2cc(S(=O)(=O)N3CCCC(C(=O)N4CCCC4)C3)c(Cl)cc2N1 (configuration not stated),i,-0.69
CC(C)NC(=O)CN1C(=O)C(C)(C)c2cc(S(=O)(=O)N3CCCCC3)ccc21,i,-0.81
Cc1ccc(Nc2ncnc3ccc(Br)cc23)cc1C,i,1.2
Cc1nc(-c2ccc(-c3noc(-c4sc(C)nc4C)n3)cc2)cs1,i,0.42
CCc1noc(-c2ccc(NC(=O)C3CC(=O)N(Cc4ccccc4)C3)cc2)n1 (configuration not stated),i,-0.25
Cc1cc(NC(=O)Nc2c(C)n(C)n(-c3ccccc3)c2=O)ccc1Br,i,0.74
CN1CCN(C(=O)c2ccc(CN3C(=O)CSc4ncccc43)cc2)CC1,i,-1.3
CN(C)c1cc(OC2CCN(C(=O)CC3CCCC3)C2)ncn1 (configuration not stated),i,1.1
COC(=O)c1sccc1-n1cccc1,i,-1.5
COc1cccc(-c2nc(C)c(-c3ccc(SCc4ccncc4)nn3)s2)c1,i,1.1
O=c1c2n[nH]c(=S)n2ccn1-c1cccc(F)c1,i,-1
CCN1CCN(Cc2cc(=O)n3[nH]c(-c4ccc(Cl)cc4)nc3n2)CC1,i,-0.13
CC1CCCN(C(=O)CN(C)S(=O)(=O)c2ccc3c(c2)CC(C)N3C(=O)C2CC2)C1 (configuration not stated),i,0.84
Cn1c(=O)[nH]c2c(C(=O)N3CCOCC3)snc2c1=O,i,1.5
Cc1ccc(NS(=O)(=O)c2cc(-c3noc(C4CC4)n3)ccc2C)c(Cl)c1,i,1.3
COCCNc1cc(C)nc2c(C)c(-c3ccc(OC)c(OC)c3)nn12,i,-0.62
CSc1ccc(-c2noc(CSc3ccc(-c4ccc(Br)cc4)nn3)n2)cc1,i,1.6
Cc1noc2ncnc(N3CCCC(C(=O)NCCN4CCc5ccccc5C4)C3)c12 (configuration not stated),i,0.32
Cc1cc(OC(C)C(=O)Nc2ccc3c(c2)OCCO3)nc2c1c(C)nn2-c1ccccc1 (configuration not stated),i,-0.34
O=C(c1cc(-c2ccc3c(c2)OCCO3)on1)N(Cc1ccccc1Cl)C1CCS(=O)(=O)C1 (configuration not stated),i,0.74
CC(C(=O)O)n1cnc2ccccc21 (configuration not stated),i,0.98
CC(C)NC(=O)c1nsc(C(=O)N2CCCC2)c1N,i,-2.4
Cc1ccc(C(=O)N2CCN(CCc3ccccn3)CC2)cc1,i,-1.1
Cc1cc(C)cc(NC(=O)N2CCN(Cc3cc(=O)n4nc(-c5ccccc5C)sc4n3)CC2)c1,i,-0.1
O=C(CCn1cnc2onc(-c3cccc(F)c3)c2c1=O)N1CCc2ccccc21,i,0.71
CC(C)CC(=O)N1CCOc2ccc(COCc3cccc(F)c3)cc2C1,i,-0.08
Cc1ccc(-n2nc(C(=O)Nc3cccnc3)c(=O)n(C)c2=O)cc1,i,-0.04
CCOc1ccc(-c2cc3c(SCC(=O)c4cc(C)ccc4C)nccn3n2)cc1,i,0.68
CN(CCNC(=O)C1CCN(c2ccc(-c3ccccc3)nn2)CC1)C1CCCCC1,i,-1.5
CCC(C)(C)NS(=O)(=O)c1cc(-c2nnc(C)o2)cs1,i,-0.27
COc1ccc(-c2cc3nccc(-c4cc(Cl)c(C)cc4O)n3n2)cc1,i,0.16
O=C(NC1CCCCC1)C1CCN(S(=O)(=O)c2ccc(-c3noc(C4CC4)n3)cc2)CC1,i,-0.52
CCCc1cc(N2CCN(C(=O)C3CCOC3)CC2)nc2nnc(CC)n12 (configuration not stated),i,-1.3
Cc1nc(CN2C(=O)COc3ccc(S(=O)(=O)N4CCN(C5CCCCC5)CC4)cc32)no1,i,-0.23
CCC(C)NC(=O)C1CCN(c2ccnc(-c3ccccc3)n2)CC1 (configuration not stated),i,0.65
O=c1c(S(=O)(=O)N2CCCCCC2)cccn1Cc1cc(F)cc(F)c1,i,-0.41
Cc1ccc(-n2c(Cc3cccn3C)nnc2SCC(=O)N2CCC(C)CC2)cc1,i,0.98
COc1ccc2cc(C(=O)N3CCCN(c4ccc(=O)n(-c5ccccc5)n4)CC3)[nH]c2c1,i,-1.6
O=C(Nc1ccc(Br)cc1)c1ccc(Nc2cc(-c3ccc(F)cc3)ncn2)cc1,i,0.54
O=C(Nc1ccc2oc(-c3ccccc3Cl)nc2c1)c1ncn[nH]1,i,0.68
CN1CCN(CCNC(=O)c2ccc(CN3C(=O)CCn4nc(-c5ccc(Cl)cc5)cc43)cc2)CC1,i,-0.59
Cc1cc(C)c(S(=O)(=O)Nc2cccc(C(=O)N3CCCC3C(=O)NC3CCCC3)c2)cc1C (configuration not stated),i,-0.17
Cn1c(=O)c(=O)[nH]c2cc(-c3noc(CNC(=O)Cc4ccccc4)n3)ccc21,i,0.02
Cc1cc(C(C)(C)C)c(O)c(C)c1CC1=NCCN1,i,-0.05&1&0.03
O=c1cc(COc2ccc(Cl)cc2)nc2sccn12,i,0.47
COc1ccc(-c2noc(Cn3ccn4nc(-c5ccccc5)cc4c3=O)n2)cc1,i,-0.39
Cc1cccc(CSc2nnc3n(CC(C)C)c(=O)c4cc(C)ccc4n23)c1,i,-0.38
CN(C1CCCCC1)S(=O)(=O)c1c[nH]c(-c2nnc(C3CC3)o2)c1,i,1.3
CCOc1cccc(CNC(=O)CCc2nnc3c4cc(-c5ccccc5)nn4ccn23)c1,i,0.52
O=C(Nc1nccs1)C1CCCN(S(=O)(=O)c2ccc3nc(-c4ccccc4)[nH]c3c2)C1 (configuration not stated),i,0.65
O=C(c1ccc2cccc(O)c2n1)N1CCN(Cc2ccc3c(c2)OCO3)CC1,i,-2
O=C(NC1CCCC1)c1nc(Nc2ccc(F)cc2)c2ccccc2n1,i,0.41
Cc1ccc(-c2noc(C3CC3)n2)cc1S(=O)(=O)Nc1ccc(-c2ccno2)cc1,i,1.3
# New compounds follow:
SMILES,Anaer choline gr,Anaer choline gr early
CC1CCN(c2cc(NC3CCCCC3)c3c4c(onc24)-c2ccccc2C3=O)CC1,i,-0.4
COc1ccc(CNC(=O)C2Cc3ccccc3CN2S(=O)(=O)c2ccc(C)cc2)c(OC)c1 (configuration not stated),i,0.22
CCCCOc1ccccc1C1CC(=O)Nc2c1c(C)nn2-c1ccc2nncn2n1 (configuration not stated),i,0.83
CCCCSc1nnc(-c2ccc(O)cc2)n1-c1ccccc1,i,0.46
NC(N)=N/N=C/c1c(Cl)cccc1Cl,+!,-2.3*!
COc1ccccc1N1CCN(S(=O)(=O)c2cc(-c3cc(C(F)(F)F)on3)sc2C)CC1,i,0.09
Cc1cc2oc(=O)cc(C)c2c2c1C(=O)CC(c1ccc3c(c1)OCO3)O2 (configuration not stated),i,0.5
O=S(=O)(Nc1ccc(Oc2nc3ccccc3n3cnnc23)cc1)c1cccc2nsnc12,i,-0.19
CC(C)CCNC(=O)C1(C)Cn2c(nc3ccccc32)C(=O)N1Cc1ccccc1Cl (configuration not stated),i,-1.3
Clc1ccc(Cl)c(-c2ccc(CNCc3ccccn3)o2)c1,i,-0.46
CCc1cc2c(Nc3ccccc3F)ncnc2s1,i,-1.8
COc1ccc(-c2nc3c4ccccc4n(CC(=O)c4ccc(OC)c(OC)c4)c(=O)n3n2)cc1,i,0.59
Cc1nn(CC(=O)N2CCN(c3ccccn3)CC2)c(=O)c2noc(C)c12,i,0.16
CCCCCCCCCCCCCCCCCCN(CCCCCCCCCCCCCCCCCC)CCCN(CCO)CCO,i,0.5
CCCn1nnc2cc(-c3noc(CN4C(=O)COc5ccccc54)n3)ccc21,i,1.5
COc1ccc(Cn2cnc3c4ccccc4n(CC(=O)Nc4cccc(OC)c4)c3c2=O)cc1,i,-0.82
COc1ccc(NC(=O)c2cc(S(=O)(=O)N3CCC(C)CC3)cn2C)c(OC)c1,i,0.23
CCN(CC)CCNc1ccc(CO)c2sc3ccccc3c(=O)c12,i,0.08
O=C(O)c1cnc2ccc(Cl)cc2c1N1CCOCC1,i,-3.8
Cc1ccc(-c2cc(N3CCN(C(=O)c4ccc(C)cc4C)CC3)ncn2)cc1,i,1.1

# Not a retest: three of the compounds above.
SMILES,Anaer choline gr,Anaer choline gr early
COc1ccc(-c2nnc3sc(-c4cc(CC(C)C)[nH]n4)nn23)cc1,i,-0.81
OCCNc1nc(Nc2ccc3c(c2)OCO3)c2cnn(-c3ccccc3)c2n1,i,0.26
CCOC(=O)c1ccc2c(c1)N(Cc1nc(-c3ccccc3C)oc1C)C(=O)c1ccccc1S2(=O)=O,i,-0.12

# (further entries)
SMILES,Anaer choline gr,Anaer choline gr early
CCOc1ccccc1NC(=O)CN1C=NS(=O)(=O)c2ccccc21,i,-0.83
CCn1nc(C)c(CCNC(=O)C2CCCN(c3nc4cccnc4s3)C2)c1C (configuration not stated),i,-0.86
COc1cccc(-c2nc(CSc3nc4ccccc4n4c(C)nnc34)c(C)o2)c1OC,i,-0.55
COc1ccc(NC(=O)N2CCCN(C(=O)c3nonc3N)CC2)cc1OC,i,0.31
O=C(NCC(c1ccccc1)N1CCCC1)c1cc(-c2ccccc2)on1 (configuration not stated),i,0.22
CCCn1c(=O)c2ccc(C(=O)NC(C)C)cc2n2c(=O)n(CC(=O)Nc3ccc(C)c(C)c3)nc12,i,-0.13
O=c1[nH]c2cc(Cl)c(S(=O)(=O)Nc3ccc4c(c3)OCCO4)cc2[nH]1,i,-0.14
Cc1ccc(S(=O)(=O)NCc2ccc(-c3nn4cnnc4s3)cc2)cc1,i,-0.74
CN1CCN(C2=Nc3ccccc3Sc3ccc(Cl)cc32)CC1,i,0.89
CCCNC(=O)N1CCC(c2cc3n(n2)CCCN(CC)C3=O)CC1,i,-1.4
Cc1cccc(-c2nc(N)n(C(=O)C3CC3)n2)c1,i,1.2
Cc1cc(C)nc(N2CCN(c3cc(C)nc4c(-c5ccc(F)cc5)c(C)nn34)CC2)n1,i,0.88
O=C(NC1CC(=O)N(c2ccc3c(c2)OCCO3)C1)C1CCCC1 (configuration not stated),i,-0.11
CCCCNC(=O)CCCn1nc(-c2ccc(OC)cc2)c2c(C)onc2c1=O,i,-0.11
COc1ccc(N2C(=O)c3cc4occc4n3CC2(C)C(=O)NC2CCC(C)CC2)cc1OC (configuration not stated),i,-0.33
CN(C(=O)C(Cl)Cl)c1ccc(OC(=O)c2ccco2)cc1,i,0.41
